MgrA DNA FP: S. aureus MgrA-DNA binding modulation. fluorescence polarization. inhibition, %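 (about 10 µg/mL by stock and volumes)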. 84,000 tested, 0.13% active. AID 602314;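 active = above 50% in either of two replicates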;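 also: 0% = protein plus DNA without compound and 100% = DNA alone without protein; higher means less MgrA bound to DNA so lower polarization; one replicate is shown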
Sa helicase inh: S. aureus DNA helicase inhibition; purified S. aureus helicase, fluorescence unwinding assay; about half of the hits fall short of the stated cut; inhibition, %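 (tested at about 80 µM)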; 120,000 tested, 0.05% active;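 active = both duplicates at 50% or more, or one of them with a favoured structure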;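 also: 0% = mean of negative control wells and 100% = mean of positive control wells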
* = called active by the depositor; . = not tested or not shown; & = joins results of further samples. These rows are one share of the data; rates above refer to the full screens.

SMILES	MgrA DNA FP	Sa helicase inh
c1ccc(C2NCCc3[nH]cnc32)cc1 (configuration not stated)	-0.1	0
C/C=C/C(=O)Nc1ccc(N2CCN(C)CC2)cc1	-1.2	.
COc1ccc(Br)cc1/C=C/[N+](=O)[O-]	9.4	.
O=P1(N2CCC(Cc3ccccc3)CC2)CC=CC1	.	5
C=CC(C)C(C(=O)c1ccccc1)N(C)C (configuration not stated)	.	14
O=C(Cc1ccc(-c2ccccc2)cc1)N1CCN(CC(=O)N2CCCC2)CC1	.	-7
O=C(c1ccco1)c1cn(Cc2ccc(Cl)cc2)c2ccccc12	.	38
CCn1c2ccccc2c2cc(P(=S)(OC)OC)ccc21	.	-5
CCN(CC)C(=O)CN1CCCN(Cc2cccc(C)c2)S1(=O)=O	.	5
COP1(OC)=NP(OC)(OC)=NP(OC)(OC)=NP(OC)(OC)=N1	1.8	-5
COc1ccc(CC2c3cc(OC)c(OC)cc3CCN2C)cc1OC (configuration not stated)	-0.2	.
COC(=O)C1=C(N)OC2=C(C(=O)CCC2)C12C(=O)Nc1ccc(Br)cc12 (configuration not stated)	-0.8	.
Cc1cc(/N=c2/c3nnnn3c3ccccc3n2C2(O)C(=O)NC(=O)NC2=O)n(-c2ccccc2)n1	.	12
CC1N=C(c2ccccc2)c2ccccc2N(CCCOc2ccc(F)cc2)C1=O (configuration not stated)	0.1	9
C=CCSc1nnc(OC(=O)N(C)C)n1-c1ccc(Cl)cc1	1.3	.
N#Cc1cc2c(nc1SCc1ccccc1Br)C1CCN2CC1	-0.3	1
CC1(C)CC(=O)C(C=NCCN2CCN(C(=O)Cc3ccc(Cl)cc3)CC2)=C(O)C1	.	-44
CCN1C[C@]2(COC)CC[C@H](O)[C@@]34C5C[C@@H]6[C@@H](OC)C[C@@](O)(C5[C@H]6OC)[C@@](O)([C@@H](OC)C23)[C@@H]14 (some centres not stated)	.	20
Nc1ccc(-c2ccccc2)cc1	.	5
COc1ccc(CC#N)cc1	.	-1
CCOC(=O)c1c(C)n(Cc2ccccc2)c2ccc(OCC(O)CNC(C)(C)C)cc12 (configuration not stated)	-2.5	-9
N#CC(C#N)=Cc1sccc1Br	.	-15
CCOC(=O)C1=C(c2ccccc2)N(CC(N)=O)C(=O)C12C(C#N)=C(N)Oc1ccccc12 (configuration not stated)	-2.0	6
O=C(/C=C/c1ccco1)C1C(=O)c2ccccc2C1=O	8.9	1
Cc1cccc(NC2=NCC(C)S2)c1 (configuration not stated)	0.2	.

(listing goes on)
SMILES	MgrA DNA FP	Sa helicase inh
Cc1ccccc1NC1=NCC(C)(C)S1	-0.1	.
Cc1ccc(-n2c(O)c(C=NCCC3=CCCCC3)c(=O)[nH]c2=O)cc1	-0.6	-13
CC1(C)CN=C(Nc2ccccc2)S1	1.6	.
O=C1NC(=O)N(c2ccc(Cl)cc2)C(=O)/C1=C/c1ccc(Br)o1	25	.
Cn1c(=O)c2ncnnc2n(C)c1=O	-1.8	7
Cc1c(C(=O)Nc2ccccc2)cc(-c2ccccc2)n1CCCN1CCOCC1	-2.1	.
COc1cc2c(C(=O)O)c(C)n(C)c2cc1Br	-2.7	5
CCCn1ccc(C(=O)O)n1	-5.8	1
O=C(c1ccccc1)C1CN2CCC1CC2 (configuration not stated)	-3.7	10
O=C(NCc1ccco1)N(Cc1ccc2c(c1)OCO2)C1CCN(Cc2ccccc2)CC1	.	10
COc1ccccc1CN1CCN(Cc2ccccc2)CC1	-1.0	8
C=C(C)Cc1c(C)nc(SCC(=O)c2ccc(Cl)cc2)nc1OC(=O)N(C)C	0.2	.
COc1ccc(NC2(C#N)CCCCC2)cc1	.	6
CCC(C)C12CN3CCN(CC(C)(C3)C1=O)C2 (configuration not stated)	0.6	-5
Cc1cc(C)n(C(=O)CN2C(=O)CN=C(c3ccccc3)c3cc(Br)ccc32)n1	.	4
Cc1nc2ccccc2c(=O)n1-c1ccc(N)cc1	-1.6	-6
COc1cccc(CN2CCN(C(C)C)CC2)c1	-4.0	-9
N#CC(C#N)=C(N)/C(C#N)=C/c1c[nH]c2ccccc12	1.1	-7
CC(C)[C@@]1(NC(=O)[C@@H]2C[C@@H]3c4cccc5[nH]cc(c45)C[C@H]3N(C)C2)O[C@@]2(O)[C@@H]3CCCN3C(=O)[C@H](Cc3ccccc3)N2C1=O	3.0	.
O=C(O)c1[nH]c2ccc(Cl)cc2c1CC(=O)N1CCN(Cc2ccccc2)CC1	.	10
CC1OC(OC2/C=C/C=C/C=C/C=C/CC/C=C/C=C/[C@H](C)[C@@H](O)[C@@H](C)[C@H](C)OC(=O)CC(O)CC(O)CC(O)CCC(O)C(O)C[C@]3(O)CC(O)C(C(=O)O)C(C2)O3)C(O)C(N)C1O (some centres not stated)	0.6	.
CCOC(=O)c1c(CN2CCOCC2)n(Cc2ccccc2)c2cc(Br)c(O)cc12	-0.9	.
CCC(N)Cc1c[nH]c2ccccc12 (configuration not stated)	0.2	2
C=CCN1C(=O)NC(=O)/C(=C/c2ccc(OCC(=O)O)c(OCC)c2)C1=O	5.2	-3
Cc1ccc(P(=Nc2ccc(S(N)(=O)=O)cc2)(Oc2ccccc2)C(C)(C)C)o1 (configuration not stated)	.	1

Pulled by compound from above (6):
SMILES	MgrA DNA FP	Sa helicase inh
C/C=C/C(=O)Nc1ccc(N2CCN(C)CC2)cc1	-1.2	.
Cc1cc(C)n(C(=O)CN2C(=O)CN=C(c3ccccc3)c3cc(Br)ccc32)n1	.	4
Cc1ccccc1NC1=NCC(C)(C)S1	-0.1	.
O=P1(N2CCC(Cc3ccccc3)CC2)CC=CC1	.	5
C=CC(C)C(C(=O)c1ccccc1)N(C)C (configuration not stated)	.	14
CCC(N)Cc1c[nH]c2ccccc12 (configuration not stated)	0.2	2

Back to the main list with the 2 entries that preceded the break.
SMILES	MgrA DNA FP	Sa helicase inh
C=CCN1C(=O)NC(=O)/C(=C/c2ccc(OCC(=O)O)c(OCC)c2)C1=O	5.2	-3
Cc1ccc(P(=Nc2ccc(S(N)(=O)=O)cc2)(Oc2ccccc2)C(C)(C)C)o1 (configuration not stated)	.	1
CC1CN=C(Nc2ccc(F)cc2F)S1 (configuration not stated)	-1.5	.
CSc1ccc(/C=C/[N+](=O)[O-])cc1	-7.3	.
CCn1c(C)c(C(=O)O)c2cc(OC)ccc21	-3.0	6
CC1CN2CCC3=C(CCCC3)C2(C)C1 (configuration not stated)	0.8	13
C(#CC1(N2CCOCC2)CCCCC1)c1ccccc1	1.2	4
CCOC(=O)c1sc2nc3c(cc2c1N)CN(C)CC3	.	29
CN1/C(=C\P(=S)(N2CCOCC2)N2CCOCC2)C(C)(C)c2ccccc21	.	6
CC(C)c1cccc(C(C)C)c1OCCNCCO	1.2	23
Cc1c(N=Nc2c(O)[nH]c(=S)[nH]c2=O)c(=O)n(-c2ccccc2)n1C	.	1
Cc1cc(COC(=O)c2cn(C)c3ccccc23)no1	.	6
Cc1cc(OC(=O)N(C)C)nc(-c2ccc(Cl)cc2)n1	0.9	.
CC(C)Sc1nnc(OC(=O)N(C)C)n1-c1cccc(C(F)(F)F)c1	0.1	.
CC(=O)NCC(=O)Nc1ccc(Br)cc1C(=O)c1ccccc1	.	-6
O=C(Cn1ncc2c1-c1ccccc1OC2)N1CCC2(CC1)OCCO2	.	-16
COc1ccccc1N1CCN(CCCCNC(=O)c2ccco2)CC1	.	-21
COc1ccc(Br)cc1/C=C1\C(=O)NC(=O)N(CCC2=CCCCC2)C1=O	7.0	19
CCOc1ccccc1NC1=NCCS1	-0.4&-6.4	-12
O=C(c1sc2ccccc2c1Cl)N1CCC2(CC1)OCCO2	-0.9	10
CN(C)c1ccc(P(=O)(N(C)C)N(C)C)cc1	.	5
COC(=O)c1c(N)n(Cc2ccco2)c2nc3ccccc3nc12	.	-10
Cc1cccc(N2CCN(CCN)CC2)c1C	.	9
CC1(C)N=C(c2cccnc2)N(O)C1(O)c1ccccc1 (configuration not stated)	2.3	.
CC1CCC(C(=O)NC(C(=O)N2CCC3(CC2)OCCO3)C(C)C)CC1 (configuration not stated)	-1.6	-1
CCOC(=O)C1=C(N)Oc2c(oc(CO)cc2=O)C12C(=O)N(CC(N)=O)c1ccccc12 (configuration not stated)	.	-18
Cc1ccccc1N1CCN(Cc2ccc(O)cc2)CC1	-15	.

The list continues:
SMILES	MgrA DNA FP	Sa helicase inh
Clc1ccc(CCNCc2ccncc2)cc1	.	4
O=C(CSC1c2ccccc2Oc2ccccc21)Nc1ccc(C(=O)O)cc1	11	10
CN1C(=O)[C@]23CC4=CC=C[C@H](O)[C@H]4N2C(=O)[C@@]1(CO)SS3	-0.2	.
CC1=CC(=O)NP(=O)(Oc2ccccc2)N1 (configuration not stated)	3.4	-10
O=C(c1noc2c1COc1ccccc1-2)N1CCC2(CC1)OCCO2	0.2	4
CCc1cc2c(cc1-c1csc(Nc3ccccc3Cl)n1)C(C)(C)CCC2(C)C	0.6	.
CC12CCC3(C[C@@H]1CCC1C2CCC2(C)C1CC[C@]2(C)O)OCCO3 (some centres not stated)	-0.8	.
c1ccc2c(CNCCc3c[nH]c4ccccc34)cccc2c1	-1.8	-12
CCOC(=O)c1c(-c2ccccc2)n(Cc2ccccc2)c2ccc(O)c(CN(C)C)c12	-2.0	5
O=C1CCN(CC(=O)c2ccc3cc[nH]c3c2)CC1	.	15
CCN(CC)P(=S)(c1nc2ccccc2n1CC)N(CC)CC	.	-9
CCCCCc1cc(O)c2c(c1)OC(C)(C)[C@@H]1CCC(C(=O)O)=CC21 (some centres not stated)	-0.9	.
NC1=C(C(=O)OCc2ccccc2)C2(C(=O)Nc3ccccc32)C2=C(CCCC2=O)O1 (configuration not stated)	-2.0	.
CCCN1CCC(N2CCC(O)CC2)CC1	-3.2	8
CCOC(=O)c1cccc(NC(=O)CCc2nc(C3=CCN(C)CC3)no2)c1	.	6
CSc1nnc([C@@H](N)Cc2c[nH]c3ccccc23)o1	-4.3	10
CCCCC/C=C\C/C=C\C/C=C\C/C=C\CCCC(=O)NCCO	-0.9	.
C/C(=C\c1ccc(Cl)cc1Cl)[N+](=O)[O-]	5.5	.
CC(CN)c1ccccc1 (configuration not stated)	.	-10
CC(C)(C)NC(=O)CN1C2CCC1CC(O)(c1ccc(F)cc1)C2 (configuration not stated)	-0.6	4
CN1CCN(C(=O)COc2ccc(Oc3ccccc3)cc2)CC1	.	-7
COc1ccccc1N1CCN(Cc2ccc(Cl)cc2Cl)CC1	-4.0	.
CCOC(=O)C1C(C)C2C(=O)C=CCC2N1C (configuration not stated)	-0.6	10
CCc1ccc(CN2CCN(Cc3ccc(CC)cc3)CC2)cc1	-2.3	2
C[C@H](N)C(=O)N[C@@H](C)C(=O)N[C@@H](Cc1ccccc1)C(=O)CCl	-0.5	.

Exported with each value named: entries from further up
> c1ccc2c(CNCCc3c[nH]c4ccccc34)cccc2c1
  MgrA DNA FP: -1.8 | Sa helicase inh: -12
> O=C1CCN(CC(=O)c2ccc3cc[nH]c3c2)CC1
  MgrA DNA FP: . | Sa helicase inh: 15

Further structures follow.
SMILES	MgrA DNA FP	Sa helicase inh
CC1(C)CSC(Nc2ccccc2Cl)=N1	-0.6	-20
COc1ccc(CCNCc2ccccc2O)cc1	.	-3
Cc1cc(C)nc(SCc2nc3ccccc3c(=O)n2-c2ccccc2)n1	.	13
CN1C(=O)Oc2ccc(Cl)cc2C1O (configuration not stated)	.	-15
CCN(CC)C(=O)N[C@@H]1CC2c3cccc4[nH]cc(c34)CC2N(C)C1 (some centres not stated)	-0.4	.
O=c1cccc2n1CC1CC2CN(CC(O)CN2CC3CC(C2)c2cccc(=O)n2C3)C1 (configuration not stated)	.	7
O=C(N1CCOCC1)C(Cl)(Cl)Cl	1.7	.
O=c1c2ccccc2[nH]c(=S)n1-c1ccccc1	-0.9	-26&-1
CC(C)(O)[C@H]1O[C@H]2CC[C@@]3(C)[C@@](O)(CC[C@H]4Cc5c([nH]c6ccccc56)[C@@]43C)C2=CC1=O	0.3	.
O=C(O)CC[n+]1ccc(-c2cc[n+](CCC(=O)O)cc2)cc1	-3.1	8
CCN(CC)P(=N)(N(CC)CC)N(CC)CC	.	-15
Cc1nn(-c2ccccc2)c2c1C(c1ccsc1)SCC(=O)N2 (configuration not stated)	.	-18
CNC(=O)O/N=C/c1nn(C)cc1Br	.	-20
O=c1c2ccccc2nc(CNCC2CCCO2)n1-c1ccc(F)cc1 (configuration not stated)	-0.8	5
COc1nc(C)nc(NC(=O)NS(=O)(=O)c2ccccc2Cl)n1	-2.0	.
c1ccc2c(c1)[I+]c1ccccc1-2	3.0	.
O=C1NC(=O)N(Cc2ccccc2)C(=O)/C1=C/c1ccc(O)cc1	-4.6	18
CN1C(=O)C(=Cc2cn(CC(=O)NCc3ccco3)c3ccccc23)C(=O)N(C)C1=O	16	-75
CSc1nnc(OC(=O)N(C)C)n1-c1ccc(Cl)cc1	-3.5	.
CN1CCc2cc3c(c4c2C1Cc1ccccc1-4)OCO3 (configuration not stated)	36	24
CCCCCCCCCCCCCCCC[n+]1ccccc1	8.8	.
N#Cc1cc(F)c(N2CCNCC2)cc1Cl	-1.1	0
C#CCN(C)[C@H](C)Cc1ccccc1	15&0.8	.
COc1cc2c(cc1OC)C(C(=O)N(C)c1ccc(Cl)cc1)C1CCCCN1C2=O (configuration not stated)	.	17
CCN(CC)P(=S)(c1ccc(/C=N/NC(N)=O)o1)N(CC)CC	.	-7
N#CC(C#N)=Cc1ccc(F)cc1F	1.0	.
O=C(O)C(c1c(O)c2ccccc2oc1=O)c1c(O)c2ccccc2oc1=O	2.3	13
C[N+]1([O-])[C@@H]2CC[C@H]1CC(OC(=O)C(CO)c1ccccc1)C2 (some centres not stated)	3.4	.
CCn1cc(C(=O)c2ccccc2)c2ccccc21	-1.5	9
Nc1n[nH]c(Cc2nc(N)n[nH]2)n1	.	26

Source: PubChem
